VDR inhibitor: blocks the human vitamin D receptor. actives 0.93% (n = 400,000). VDR-SRC2-3 peptide fluorescence polarization, 2 h. AID 504847. P11473. Potency, µM, inactives show max response, negative = inhibition, hits mostly inhibitors; active = well fitted inhibition curve with a large enough effect; inconclusive = small, poorly fitted or top-dose-only effect, or another doubt; inactive = no such curve, though single readings can be large or run the other way; note: series mostly up to about 120 µM
Target sequence (P11473 whole entry, looked up): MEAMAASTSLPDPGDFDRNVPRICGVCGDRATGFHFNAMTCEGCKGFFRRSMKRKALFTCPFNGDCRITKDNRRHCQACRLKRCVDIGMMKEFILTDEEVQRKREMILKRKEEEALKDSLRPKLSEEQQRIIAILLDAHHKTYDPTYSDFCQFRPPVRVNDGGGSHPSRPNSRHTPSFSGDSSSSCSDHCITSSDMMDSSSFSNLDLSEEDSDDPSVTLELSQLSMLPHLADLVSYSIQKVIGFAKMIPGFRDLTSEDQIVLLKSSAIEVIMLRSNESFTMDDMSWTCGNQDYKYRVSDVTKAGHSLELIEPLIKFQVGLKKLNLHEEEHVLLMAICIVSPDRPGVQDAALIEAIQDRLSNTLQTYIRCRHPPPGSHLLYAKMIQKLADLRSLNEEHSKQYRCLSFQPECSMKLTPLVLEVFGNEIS
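After 23 nl compound addition and a short centrifugation, plates sat for 2 hours at ambient temperature; polarization of fluorescence then indicated loss of VDR binding to peptide SRC2-3.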
* marks the source's active call; other numbers are inactive results; ? = inconclusive; & = joins results of further samples. % is set by controls: 0 for no effect and ±100 for the full control effect; potency is the fitted concentration of half-maximal effect. Some of the compounds tested; count on the stated rates, not on these rows.

cpd | structure | VDR inhibitor
1 | Cc1cc(C)cc(S(=O)(=O)Cc2noc(C(=O)NCc3ccccc3)c2C(=O)NCc2ccccc2)c1 | 1%
2 | O=C(c1ccco1)N1CCN(C(=O)c2ccc(COc3ccc(Cl)cc3Cl)o2)CC1 | -7%
3 | CC(C)(C)c1cc(CN2CCOCC2)c(C(=O)O)o1 | 0%
4 | CCC(C)NS(=O)(=O)c1ccc(NC(=O)C(Sc2ccccc2)c2ccccc2)cc1 (configuration not stated) | -12%
5 | CC(C)(C)NC(=O)C(c1ccccn1)N(C(=O)c1csnn1)C1CCCC1 (configuration not stated) | 6%
6 | CCOc1ccc(CN2CCCC(CO)(Cc3ccccc3F)C2)cc1 (configuration not stated) | 10%
7 | CC(=O)c1cnc(Nc2nc(C)c3ccc(C)cc3n2)nc1C | 11%
8 | O=C(CCNS(=O)(=O)c1ccc(Br)s1)NCc1ccccc1 | -3%
9 | COc1ccc(N(CC(=O)NCCOc2ccccc2)S(=O)(=O)c2ccc(C)cc2)cc1 | 14%
10 | CC(=O)CCc1c(C)[nH]c2ccc(NC(C)=O)cc2c1=O | -9%
11 | Clc1cnc(Nc2cccnc2)c(Cl)c1 | 8%
12 | CCN(CC)S(=O)(=O)c1ccc2c(c1)c(=O)c(C(=O)N1CCN(c3cccc(C)c3)C(C)C1)cn2C (configuration not stated) | -23%
13 | Cc1cn2c(=O)c(S(=O)(=O)NCCc3ccc(Cl)cc3)c(C)nc2s1 | -4%
14 | CCCCc1nc2cc(C(=O)NCc3cc(C)n(C)n3)ccc2o1 | -18%
15 | Cc1ncc(S(=O)(=O)C(C)(C)C)c(N)n1 | 4%
16 | O=C(CSc1nc(-c2cccs2)nc2ccccc12)NC1CCS(=O)(=O)C1 (configuration not stated) | 7%
17 | CN(c1nc2ccccc2nc1Cl)S(=O)(=O)c1ccccc1 | 2%
18 | COc1cccc(-n2c(C)c3c(OC)cccc(=O)c3c2C)c1 | 6%
19 | COc1cc(OC)cc(C(=O)Nc2ccc(S(=O)(=O)Nc3cc(C)nc(C)n3)cc2)c1 | -8%
20 | COC(=O)C1=C(c2ccccc2)c2ccccc2S(=O)(=O)N1CC(=O)Nc1ccc(F)c(F)c1 | -4%
21 | CCN(CC)C(=O)Oc1ccccc1NC(C)=O | 20%
22 | OCCN(CCO)CC(O)COc1ccc(Br)cc1 (configuration not stated) | -6%&2%
23 | COCCn1c(=S)[nH]c2cc(C(=O)N3CCN(Cc4ccccc4)CC3)ccc2c1=O | 7%
24 | Cc1sc2nc(COC(=O)c3cccc(S(=O)(=O)N(C)c4ccccc4)c3)[nH]c(=O)c2c1C | 9%
25 | CCN(C[C@H]1N[C@@](C)(C(=O)OC)[C@H]2C(=O)N(Cc3ccccc3)C(=O)[C@@H]12)S(=O)(=O)c1ccc(OC)cc1 | 8%
26 | CCOC(=O)N1CCC(N(CCN(C)C)C(=S)Nc2ccc(F)c(Cl)c2)CC1 | -17%
27 | CC(C)(C)C(=O)NC1CCN(S(=O)(=O)c2ccc(C(F)(F)F)cc2)CC1 | -2%
28 | O=C(Cc1ccccc1)NNC(=O)C1CCCC1 | -8%
29 | COc1ccc(N2CCN(C(=O)c3cc4c(s3)-c3ccccc3OC4)CC2)cc1 | -12%&-16%
30 | O=C(Nc1ccc(N2CCCCC2)c(Cl)c1)c1ccc(N2CCOCC2)c([N+](=O)[O-])c1 | 35%
31 | CCCCC(=O)Nc1ccc(C(=O)N2CCC(C(=O)OCC)CC2)cc1 | 18%
32 | CC1CCCC(NC(=O)CN2C(=O)NC(C)(c3ccccc3)C2=O)C1C (configuration not stated) | -2%
33 | Cc1cc(Cl)ccc1NC(=O)CN1CCC(C(O)(c2ccccc2)c2ccccc2)CC1 | 0%
34 | Nc1cccc(C(=O)NCCNC(=O)c2cccc(N)c2)c1 | -11%
35 | Cc1nc(C(=O)Nc2ccccc2)sc1C1(C)CC(c2cccnc2)=NO1 (configuration not stated) | -13%
36 | COCCN(C(=O)CC1C(=O)NCCN1Cc1ccc(-c2ccccc2)cc1)C(C)C (configuration not stated) | -7%
37 | CC(=O)Nc1ccc(NC(=O)C2CCCN(S(=O)(=O)c3ccc(-n4cnnn4)cc3)C2)cc1 (configuration not stated) | 8%
38 | C=C(C)Cn1c(N2CCN(c3ccc(OC)cc3)CC2)nc2c1c(=O)n(C)c(=O)n2C | -2%
39 | O=C(Cc1ccccc1)NC1CC(=O)N(c2ccccc2)C1 (configuration not stated) | -4%
40 | CCN(c1ccccc1)S(=O)(=O)c1ccc(Cl)c(NC(=O)CSc2nncs2)c1 | -4%
41 | CCOC(=O)C(CC)(CC)C(=O)/C=C/c1cccc(Br)c1 | 79µM*
42 | CSCCCNC(=O)c1ccccc1OC1CCN(S(C)(=O)=O)CC1 | 11%
43 | O=C(Nn1cnnc1)c1ccccc1F | 8%
44 | O=C(O)c1cc(-c2ccc(Cl)cc2)n(-c2ccccc2)n1 | -20%
45 | COc1cc(C(=O)NNC(=O)C2CC2)cc(OC)c1OC | -1%
46 | Cc1ccc(C2N(c3ccc(F)cc3)C(=O)C3CCCN32)cc1 (configuration not stated) | -15%
47 | Fc1ccccc1N1CCN(CCCNc2ccc3nncn3n2)CC1 | 5%
48 | O=c1oc2ccccc2cc1-c1nc(-c2cccs2)cs1 | 3%

Six entries already listed, sorted by the number in VDR inhibitor, highest first.
cpd | structure | VDR inhibitor
30 | O=C(Nc1ccc(N2CCCCC2)c(Cl)c1)c1ccc(N2CCOCC2)c([N+](=O)[O-])c1 | 35%
25 | CCN(C[C@H]1N[C@@](C)(C(=O)OC)[C@H]2C(=O)N(Cc3ccccc3)C(=O)[C@@H]12)S(=O)(=O)c1ccc(OC)cc1 | 8%
3 | CC(C)(C)c1cc(CN2CCOCC2)c(C(=O)O)o1 | 0%
32 | CC1CCCC(NC(=O)CN2C(=O)NC(C)(c3ccccc3)C2=O)C1C (configuration not stated) | -2%
28 | O=C(Cc1ccccc1)NNC(=O)C1CCCC1 | -8%
34 | Nc1cccc(C(=O)NCCNC(=O)c2cccc(N)c2)c1 | -11%

(listing goes on)
cpd | structure | VDR inhibitor
49 | CN1C(=O)NC(NC(=O)C2CCCCC2)(C(F)(F)F)C1=O (configuration not stated) | 7%
50 | Cc1c([N+](=O)[O-])c([N+](=O)[O-])nn1CC(=O)NCc1cccnc1 | -21%
51 | COC(=O)c1ccc(C(=O)OC)c(NC(=O)c2c(-c3ccccc3)c(-c3ccccc3)nn(C)c2=O)c1 | -1%
52 | COc1ccc(-n2nc(C(=O)Nc3ccc(Cl)cn3)c3c4ccccc4n(C)c3c2=O)cc1Cl | -1%
53 | O=C(CSc1nnc(-c2c[nH]c3ccccc23)o1)N1CCCCC1 | -1%
54 | Cc1cc(C(=O)N2CCN(S(C)(=O)=O)CC2)cs1 | -6%
55 | CC1=Nn2c(nnc2-c2ccc(F)cc2)SC1 | 0%
56 | COc1cc(C(=O)NCC2CCCO2)cc(OC)c1OC (configuration not stated) | -6%
57 | Cc1ccc(COc2ccsc2C(=O)NNC(N)=S)cc1 | -10%
58 | COc1cccc(CNC(=O)CCCN2C(=O)CSc3c2c(C)nn3-c2ccccc2)c1 | 14%
59 | COc1ccc(CNCCS(=O)(=O)NC2CCCCC2)cc1 | -4%
60 | O=C1NN(c2ccc(Cl)cc2)C(=O)/C1=C\c1ccc(-c2cccc(C(=O)O)c2)o1 | ?
61 | CCCSCCCNC(=O)c1ccccc1NC(=O)C1=CSCCO1 | -1%
62 | COc1ccc([N+](=O)[O-])cc1NC(=O)C(C)OC(=O)CN1C(=O)C2CC=CCC2C1=O (configuration not stated) | 8%
63 | COc1ccc(CNC(=O)C(=O)NCC(c2ccco2)S(=O)(=O)c2ccc(Cl)cc2)cc1 (configuration not stated) | 8%
64 | CCOc1ccc(CCNC(=O)CCc2nnc3ccc(N4CCCCC4)nn23)cc1OCC | 6%
65 | CC(Sc1nnnn1C)C(=O)NC(=O)NC1CCCCC1 (configuration not stated) | 15%
66 | C/C(=N/OC(=O)c1c(-c2c(Cl)cccc2Cl)noc1C)c1cnccn1 | 17%
67 | CC(Oc1ccc(Cl)cc1Cl)c1nc(-c2ccc(NC(=O)c3ccncc3)cc2)no1 (configuration not stated) | 2%
68 | CCOC(=O)c1ccc(NC(=O)N2CCCCC2)cc1 | 8%
69 | CSCC[C@H](NC(=O)C1CCN(C(=O)[C@@H](N)Cc2ccccc2)CC1)C(=O)O | 5%
70 | CCC(CC)C(=O)NCCNC(=O)C(CC)CC | -4%
71 | O=[N+]([O-])c1ccc(-c2ccc(/C=N/n3cnnc3)o2)c(Br)c1 | ?
72 | Cc1ccc(NC(=O)NCCOCCn2c(=O)oc3ccccc32)cc1C | 6%
73 | Clc1cccc(Cl)c1CON/C=N/c1ncnc2sccc12 | 9%
74 | COc1cc(/C=C/C(=O)Nc2nc3ccc(S(=O)(=O)N(C)C)cc3s2)cc(OC)c1OC | -5%
75 | CC(OC(=O)c1ccc(S(=O)(=O)N(C)c2ccccc2)cc1)C(=O)NCCC1=CCCCC1 (configuration not stated) | 7%
76 | N#Cc1c(N2C(=O)C3C4C=CC(C4)C3C2=O)sc2c1CCC2 (configuration not stated) | -9%
77 | CN(Cc1ccccc1)C(=O)[C@@H]1CCCN1S(=O)(=O)c1ccc(Cl)cc1 | 2%
78 | C[C@]12CCC(O)CC1CCC1C2CC[C@]2(C)C(c3cc(C(F)(F)F)n[nH]3)CCC12 (some centres not stated) | -11%
79 | CCn1c(SCC(=O)N/N=C/C=C/c2ccco2)nnc1-c1ccccc1 | -18%
80 | Cc1ccc(S(=O)(=O)N2[C@@H](c3ccc(C#N)cc3)C(C(=O)O)=C[C@H]2CC2CCCC2)cc1 | ?
81 | COc1ccc(NC(=O)COc2ccccc2F)cc1S(=O)(=O)N1CCCCC1 | 3%
82 | O=C(Cn1cc2c(n1)CCCCC2)Nc1c(F)cc(F)cc1Br | 21%
83 | COc1cccc(C(c2sc3nc(-c4ccco4)nn3c2O)N2CCC(O)CC2)c1 (configuration not stated) | -4%
84 | CCOC(=O)c1cc(CC)sc1NC(=O)COC(=O)C1CCC1 | -10%
85 | O=C(CN1C(=O)CCC1=O)c1ccc(-c2ccccc2)cc1 | -17%
86 | O=C(NNC(=O)C1CCCO1)c1ccc(Cl)cc1 (configuration not stated) | 0%
87 | COc1ccc(-n2c(SCc3ccc(C#N)cc3)nnc2-c2ccccn2)cc1 | 4%
88 | CN(C)/C=C/C(=O)c1cccc(Oc2ncccn2)c1 | -4%
89 | O=C1/C(=C/c2ccc([N+](=O)[O-])cc2)C=C(c2ccccc2)N1c1ccc(O)cc1 | ?
90 | Cc1ccc(C)c(OCCCN2CCc3ccccc3C2)c1 | -4%
91 | COCCNC(=O)C(c1cccs1)N(CCc1ccccc1)C(=O)Cn1nnc2ccccc21 (configuration not stated) | -19%
92 | O=C(CSc1nnc(-c2c[nH]c3ccccc23)n1-c1ccc(F)cc1)NCc1ccco1 | -22%
93 | CCOc1ccc(-n2ccnc2SCC(=O)Nc2cccc3ccccc23)cc1 | 10%
94 | COc1ccc(-c2csc(Nc3cccnc3)n2)cc1OC | 16%
95 | COc1ccc(CN2CCOCC2)cc1Br | -13%
96 | CCOc1ccccc1NC(=O)c1ccc(Cl)c(NC(=O)CC(c2ccccc2)c2ccccc2)c1 | -19%

Shown with each value named: part of the list above.
#93 CCOc1ccc(-n2ccnc2SCC(=O)Nc2cccc3ccccc23)cc1
  VDR inhibitor: 10%
#88 CN(C)/C=C/C(=O)c1cccc(Oc2ncccn2)c1
  VDR inhibitor: -4%
#90 Cc1ccc(C)c(OCCCN2CCc3ccccc3C2)c1
  VDR inhibitor: -4%

Part of the list above in order of length of the SMILES, falling:
cpd | structure | VDR inhibitor
92 | O=C(CSc1nnc(-c2c[nH]c3ccccc23)n1-c1ccc(F)cc1)NCc1ccco1 | -22%
85 | O=C(CN1C(=O)CCC1=O)c1ccc(-c2ccccc2)cc1 | -17%
95 | COc1ccc(CN2CCOCC2)cc1Br | -13%

Carrying on:
cpd | structure | VDR inhibitor
97 | COC(=O)c1[nH]c2ccc(Cl)cc2c1NC(=O)c1ccccc1[N+](=O)[O-] | -12%
98 | C[C@@H](C(=O)NCc1ccccc1)[C@H]1C[C@]1(C)[C@H](NC(=O)OCc1ccccc1)c1ccccc1 | -2%
99 | COc1ccc(C2(c3ccc(OC)cc3)NC(=O)N(CC(=O)Nc3ccc(N4CCOCC4)cc3)C2=O)cc1 | -7%
100 | Cc1ccc(S(=O)(=O)C(CNS(=O)(=O)c2ccc(F)c(C)c2)c2cccs2)cc1 (configuration not stated) | -1%
101 | COc1ccc(C2CC(=O)n3c(nc4ccccc43)S2)cc1OC (configuration not stated) | -18%
102 | CCCCCCCCOC1OC(CO)C(O)C(O)C1NC(C)=O (configuration not stated) | -3%
103 | Cn1c(SCC(=O)NCc2ccco2)nnc1-c1c[nH]c2ccccc12 | 3%
104 | N#Cc1cc2c(nc1SCC(=O)Nc1sc3c(c1C#N)CCC3)CCCCCC2 | 3%
105 | CCOc1ncccc1C(=O)NCCc1ccc(Cl)cc1 | -25%
106 | CN1CCC(=NNc2ccc(S(=O)(=O)N3CCOCC3)cc2[N+](=O)[O-])CC1 | 2%
107 | N/C(=N\OC(=O)CC1CCCCC1)c1ccccc1 | -14%
108 | CC#CCc1cc2ccccc2c(=O)o1 | -19%
109 | CCC(=O)N(Cc1cc2cccc(C)c2[nH]c1=O)c1ccccc1OC | 10%
110 | O=C(NC(=S)N1CCOCC1)c1ccccc1Cl | 10%
111 | N=c1c(C(=O)NCC2CCCO2)cc2c(=O)n3ccccc3nc2n1Cc1ccccc1Cl (configuration not stated) | 17%
112 | CCOC(=O)c1cn(CC(=O)Nc2ccc3c(c2)OCCO3)nn1 | 1%
113 | O=C(Cc1ccccc1F)Nc1nc(-c2cccnc2)cs1 | 13%
114 | Nc1c(N=Nc2cccc(Cl)c2)c(=O)[nH]n1-c1ccccc1 | -2%
115 | CS(=O)(=O)c1ccc2nc(NC(=O)CN3C(=O)NC4(CCCC4)C3=O)sc2c1 | -11%
116 | Cc1ccccc1Nc1nc(N)nc(COC(=O)[C@@H](NC(=O)c2ccccc2Cl)C(C)C)n1 | -10%

Source: PubChem
